VDR inhibitor: vitamin D3 receptor (human) inhibition | P11473 | VDR-SRC2-3 peptide fluorescence polarization, 2 h | Potency, µM, inactives show max response, negative = inhibition, usual class: inhibitors | hit rate 0.93% among 400,000 | AID 504847; active = well fitted inhibition curve with a large enough effect; inconclusive = small, poorly fitted or top-dose-only effect, or another doubt; inactive = no such curve, though single readings can be large or run the other way; also: series mostly up to about 120 µM
Target sequence (P11473 whole entry, looked up): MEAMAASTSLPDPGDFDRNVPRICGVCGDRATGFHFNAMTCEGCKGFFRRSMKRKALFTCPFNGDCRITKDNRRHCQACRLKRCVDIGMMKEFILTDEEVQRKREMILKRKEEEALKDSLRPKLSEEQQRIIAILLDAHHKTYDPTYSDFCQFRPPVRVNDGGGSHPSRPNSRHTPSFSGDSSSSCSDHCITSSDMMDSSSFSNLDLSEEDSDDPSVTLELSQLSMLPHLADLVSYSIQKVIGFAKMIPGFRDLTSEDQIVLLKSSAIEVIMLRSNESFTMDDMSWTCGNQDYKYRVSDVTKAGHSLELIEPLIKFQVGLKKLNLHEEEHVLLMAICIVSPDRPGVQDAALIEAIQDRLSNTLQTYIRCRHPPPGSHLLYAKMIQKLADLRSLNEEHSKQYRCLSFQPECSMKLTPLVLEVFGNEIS
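Signal is fluorescence polarization, reporting how far test compounds block the interaction of VDR with the SRC2-3 coregulator peptide after a 2 h room-temperature incubation.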
Starred values were filed as active, the others as inactive; ? = inconclusive; & = joins results of further samples; [ ] = dose if it differs, or a comment. % is scaled to controls: 0 for no effect and ±100 for the full control effect; potency is read from the fitted curve at half-maximal effect. This is a subset; rates above refer to the full screens.

| VDR inhibitor | Structure |
| --- | --- |
| -21% | CS(=O)(=O)c1ccc2nc(NC(=O)c3ccc(Cl)nc3)sc2c1 |
| ? | CN(Cc1cc2ccccc2[nH]c1=O)C(=O)C1CCCCC1 |
| -9% | Cn1c(=O)c(=O)n(C)c2cc(S(=O)(=O)N3CCCCCC3)ccc21 |
| ? | COc1cc(/C=C/C(=O)c2ccc3c(c2)OCO3)cc(OC)c1OC |
| 2% | CC(C)CN(CC(C)C)C(=O)Nc1ccc(F)cc1F |
| -16% | Cc1ccc(C(c2nnnn2CS(=O)(=O)c2ccc(C)cc2)N2CCC(C(N)=O)CC2)cc1 (stereo unspecified) |
| -19% | O=C(NCc1ccccc1)c1nnc(CS(=O)(=O)c2ccccc2)o1 |
| -9% | Cc1c(C)n(CC(O)CN2CCCCC2)c2ccccc12 (stereo unspecified) |
| -2% | CNC(=O)Cn1c(=O)n(C)c2ccccc21 |
| 11% | COc1ccc2nc(N(Cc3cccnc3)C(=O)CCc3ccccc3)sc2c1 |
| -7% | CC1(/[N+]([O-])=C\c2ccccc2F)CCCCC1=O (stereo unspecified) |
| -14% | CC(=O)N1CCN(S(=O)(=O)c2ccc(S(=O)(=O)NC3CC3)cc2)CC1 |
| 5% | CC1=NN(C(N)=S)C(=O)C1N=Nc1ccc(C)c(Br)c1 (stereo unspecified) |
| ? | O=C(c1ccccc1F)N1CCN(c2ccc([N+](=O)[O-])c3ncccc23)CC1 |
| 14% | Cc1cc(Br)cc(Br)c1OCC(=O)NNC(=O)Nc1ccccc1 |
| 22% | CC(C)(C)C(=O)/C=C(\N)c1ccncc1 |
| -15% | CCc1nnc(NS(=O)(=O)c2ccc(NC(=O)c3cc(Cl)ccc3Cl)cc2)s1 |
| -24% | COc1cc(C2CC(=O)Nc3c2c(=O)[nH]c2ncnn32)ccc1O (stereo unspecified) |
| -7% | COc1ccc(OCCOC(=O)c2cccc(-n3cnnn3)c2)cc1 |
| 7% | O=C(NCCCN1CCOCC1)c1cccnc1SCc1ccccc1Cl |
| 9% | C=CCn1c(C)cc(C2=NNC(=Nc3ccc(C)cc3)SC2)c1C |
| 7% | Cc1nccn1-c1c2c(c(C#N)c3nc4ccccc4n13)CCCC2 |
| 5% | CCCCCCCC(=O)NN1CCOCC1 |
| -11% | Cc1nc(C(=O)Nc2cc(F)cc(Cl)c2)sc1C1(C)CC(c2ccccc2)=NO1 (stereo unspecified) |
| -17% | Cc1[nH]n(C(N)=S)c(=O)c1N=Nc1cccc([N+](=O)[O-])c1C |
| -2% | CCOC(=O)C1CCN(c2cc3c(cc2NC(=O)c2ccc(Cl)cc2)n(C)c(=O)n3C)CC1 |
| -4% | O=C(Nc1ccc(F)cc1)Nc1ccc([N+](=O)[O-])cn1 |
| -6% | COc1ccc(C2c3cc(OC)c(OC)cc3CCN2C2CC(=O)N(c3ccccc3)C2=O)cc1OC (stereo unspecified) |
| -10% | CCOc1cc(S(=O)(=O)N2CCC(Cc3ccccc3)CC2)c(OCC)cc1-n1cnnn1 |
| 10% | CCOC(=O)c1ccc(NC(=O)c2cn(-c3ccccc3)nc2-c2ccc(OC)c(OC)c2)cc1 |

Fetched one by one from above (two):
| VDR inhibitor | Structure |
| --- | --- |
| 22% | CC(C)(C)C(=O)/C=C(\N)c1ccncc1 |
| 5% | CCCCCCCC(=O)NN1CCOCC1 |

By substructure, those above containing an aryl methoxy group (6)
| VDR inhibitor | Structure |
| --- | --- |
| ? | COc1cc(/C=C/C(=O)c2ccc3c(c2)OCO3)cc(OC)c1OC |
| 11% | COc1ccc2nc(N(Cc3cccnc3)C(=O)CCc3ccccc3)sc2c1 |
| -24% | COc1cc(C2CC(=O)Nc3c2c(=O)[nH]c2ncnn32)ccc1O (stereo unspecified) |
| -7% | COc1ccc(OCCOC(=O)c2cccc(-n3cnnn3)c2)cc1 |
| -6% | COc1ccc(C2c3cc(OC)c(OC)cc3CCN2C2CC(=O)N(c3ccccc3)C2=O)cc1OC (stereo unspecified) |
| 10% | CCOC(=O)c1ccc(NC(=O)c2cn(-c3ccccc3)nc2-c2ccc(OC)c(OC)c2)cc1 |

Remaining list, next part.
| VDR inhibitor | Structure |
| --- | --- |
| -21% | O=C(/C=C/c1ccc2c(c1)OCO2)Nc1nc2ccc(F)cc2s1 |
| 7% | CCNC(=O)C1CCN(S(=O)(=O)c2ccc3c(c2)CCCN3C(C)=O)CC1 |
| -11% | CC(C)CCNC(=O)C1CCN(S(=O)(=O)c2ccc3c(c2)CCC(=O)N3)CC1 |
| -3% | OCCC1CN(Cc2cccc3nccnc23)CCN1Cc1ccc(F)cc1 (stereo unspecified) |
| -5% | COc1ccc(/C=N/NC(=O)C(=O)/C=C2\NC3(CCCC3)Cc3ccccc32)cc1 |
| -9% | Fc1ccc(NC(=S)NCCc2ccccc2)c(F)c1F |
| 0% | COc1ccc(-c2c(C#N)c(SCC(=O)Nc3ccc(Br)cc3)nc(C)c2C(=O)Nc2ccccc2)cc1 |
| 15% | CC(C)c1ccc(NC2CCCN(C(=O)c3cccnc3)C2)cc1 (stereo unspecified) |
| -2% | N#CCC(CNc1ncc(C(F)(F)F)cc1Cl)OC(=O)c1ccc(Cl)cc1Cl (stereo unspecified) |
| -12% | CC(C)COc1nc2c(c(=O)n(C)c(=O)n2C)n1C |
| -14% | CC(C)NC(=O)Cn1c(SCC(=O)N2c3ccccc3CC2C)nc2ccccc21 (stereo unspecified) |
| 14% | Cc1ccc(OCc2nnnn2-c2ccccc2)cc1 |
| 10% | O=C1CN2C(=Nc3ccc(Br)cc3C2c2ccccc2)CCN1 (stereo unspecified) |
| 5% | CC(=O)N/C(=C/C(C)C)c1ccccc1 |
| -9% | O=S(=O)(c1ccc(F)cc1F)N1CCN(c2nc(-c3cccs3)nc3ccccc23)CC1 |
| -11% | CC1(C(=O)N/N=C/c2ccccc2)CC1(Cl)Cl (stereo unspecified) |
| -8% | CN(C)C(CNC1CC(C)(C)NC(C)(C)C1)c1cccc(F)c1 (stereo unspecified) |
| 14% | C#Cc1ccc(C(=O)NCc2ccc(N3CCCC3=O)cc2)cc1 |
| -8% | Cc1ccc(S(=O)(=O)N(C)C)cc1NC(=O)/C=C/c1cccs1 |
| -6% | Cn1c(SCC(=O)N2CCCC2)nnc1-c1ccc2c(c1)OCO2 |
| -4% | COC(=O)c1ccc(-n2cnc3ccccc32)nc1 |
| 39%[activator] | Fc1ccccc1COc1ccc(/C=N/n2cnnc2)cc1 |
| -17% | O=S(=O)(O)c1cccc2cccnc12 |
| -11% | O=C(Nc1ccc2c(c1)OCCO2)c1ccccn1 |
| 5% | CCOC(=O)C1CCCN(c2oc(-c3ccc(F)cc3)nc2C#N)C1 (stereo unspecified) |
| -4% | CCN1C(=O)NC(c2cc(Br)ccc2OC)C(C(=O)OC)=C1C (stereo unspecified) |
| 4% | O=C(CSc1n[nH]c(=O)n1-c1cccnc1)Nc1ccccc1Cl |
| 14% | Cc1occc1-c1nnc(SCc2cc(=O)n3cc(Br)ccc3n2)n1C |
| -7% | COc1cc(CN(C2CCCCC2C)S(=O)(=O)c2ccc(S(=O)(=O)NC3CC3)cc2)cc(OC)c1OC (stereo unspecified) |
| 11% | O=C(CSc1cn(CC(=O)N2CCCCC2)c2ccccc12)Nc1ccc(C(F)(F)F)cc1 |

The last 3 records of the section above open the next one:
| VDR inhibitor | Structure |
| --- | --- |
| 14% | Cc1occc1-c1nnc(SCc2cc(=O)n3cc(Br)ccc3n2)n1C |
| -7% | COc1cc(CN(C2CCCCC2C)S(=O)(=O)c2ccc(S(=O)(=O)NC3CC3)cc2)cc(OC)c1OC (stereo unspecified) |
| 11% | O=C(CSc1cn(CC(=O)N2CCCCC2)c2ccccc12)Nc1ccc(C(F)(F)F)cc1 |
| -7% | COc1cc2c(cc1NC(=O)Nc1ccccc1)oc1ccccc12 |
| 20µM* | O=C(c1ccc(Cl)cc1)C(CN1CCCCC1)c1ccccc1 (stereo unspecified) |
| 5% | O=C(O)C1C2C=CC(O2)C1C(=O)Nc1ccccn1 (stereo unspecified) |
| -3% | Cc1onc(-c2ccccc2)c1C(=O)OCC(=O)NC(C)c1ccc(Cl)cc1 (stereo unspecified) |
| -21% | NC1=NC(=Nc2cccc(S(N)(=O)=O)c2)c2ccccc21 |
| 4% | CCOc1ccc(S(=O)(=O)N2CCCC2)cc1 |
| -8% | Cc1[nH]nc(-c2ccc(O)c(C)c2O)c1-c1cnn(-c2ccccc2)c1 |
| -16% | CC(CNC(=O)CN1C(=O)NC2(CCCCC2)C1=O)c1ccccc1 (stereo unspecified) |
| 6% | COc1ccc(NC(=O)CN(C)C(=O)C(C)Oc2ccc(Br)cc2)cc1 (stereo unspecified) |
| 0% | Cc1ccc(C(=O)N2CC(C)SC2=Nc2cccc(S(=O)(=O)N(C)C)c2)cc1 (stereo unspecified) |
| -14% | CCC(CO)Oc1cc(NC(=O)Cc2ccccc2F)c2ncn(C(C)C)c2c1 (stereo unspecified) |
| 9% | COc1ccc(OC)c(CNC(=O)c2ccc3c(c2)c(C)c(C)n3C)c1 |
| -9% | CCN1C(=O)c2ccc(C(=O)NCc3ccco3)cc2C1=O |
| 15% | COc1ccc(OCCC(=O)NC2CCCCC2)cc1 |
| 2% | COc1cc(Br)cc(CN2CCN(c3ncccn3)CC2)c1O |
| -2% | COc1cccc(C2/C(=C(/O)c3ccccc3)C(=O)C(=O)N2CCCC(=O)O)c1 (stereo unspecified) |
| -13%&5% | COc1ccc(CCNC(=O)CN2C(=O)COc3ccc(S(=O)(=O)N4CCCC4)cc32)c(OC)c1 |
| -1% | CC(O)c1nc2ccccc2n1Cc1ccc([N+](=O)[O-])cc1 (stereo unspecified) |
| ? | CN(C)[C@@H]1C(=O)C(C(N)=O)=C(O)[C@@]2(O)C(=O)C3=C(O)c4c(O)ccc(Cl)c4[C@@H](O)[C@H]3C[C@@H]12 |
| -12% | Cc1ccc(Nc2c(-c3ccccn3)nc3ccc(C)cn23)cc1 |
| 5% | CCC(=O)c1ccc(OCC(=O)NCCCN2CCOCC2)cc1 |
| -2% | Cc1ccc(S(=O)(=O)N2CCOC2CNC(=O)C(=O)NCCc2c[nH]c3ccccc23)cc1 (stereo unspecified) |
| 22% | COc1ccc(-c2nc(SCC(=O)c3ccc(OC)c(Br)c3)n[nH]2)cc1 |
| 10% | Cc1cccc(NC(=O)c2cc(S(=O)(=O)NCCc3ccccc3)ccc2F)c1C |
| 27% | COc1ccc(CC(=O)N/N=C(\C)c2cccc(NC(=O)C3CC3)c2)cc1 |
| -6% | Fc1ccccc1NC(=S)N1CCC(c2ccccc2)C1 (stereo unspecified) |
| -13% | O=C(/N=C1/c2ccccc2CN1c1ccccc1)Nc1ccccc1 |
| -16% | COc1ccc2c(CC#N)c[nH]c2c1 |
| ? | CCCOc1ccc(N2C(=O)CC(SCc3nc4ccccc4[nH]3)C2=O)cc1 (stereo unspecified) |
| -9% | O=C(NCC1CCCO1)/C(=C/c1ccccc1)NC(=O)c1ccccc1 (stereo unspecified) |

Next section:
| VDR inhibitor | Structure |
| --- | --- |
| 1% | CCCC(C)c1nnc(NC(=O)COc2ccc3c(c2)OCO3)s1 (stereo unspecified) |
| -4% | Cc1ccc(NC(=O)CN(C)C(=O)CSc2ccccc2F)cc1 |
| -5% | COc1ccc(-n2c(SCC(=O)NNC(=O)c3ccccc3C)nnc2-c2ccncc2)cc1 |
| -6% | Nc1nc2nc(-c3ccc(F)cc3)cc(C(F)(F)F)n2n1 |
| 17% | CCOC(=O)c1ccc(NC(=O)C2CCN(S(=O)(=O)Cc3ccccc3)CC2)cc1 |
| -5% | COc1ccc(-c2cc(CCCC(=O)N3CCN(c4ccc(OC)cc4)CC3)no2)cc1 |
| 8% | Cc1cc(Nc2ccc(C)c(Br)c2)n2nc(C)nc2n1 |
| 5% | CCc1ccc(N2CC(C)Cn3c2nc2c3c(=O)n(CC(=O)O)c(=O)n2C)cc1 (stereo unspecified) |
| -11% | O=C(Nn1cnnc1)C(c1ccccc1)c1ccccc1 |
| 1% | COc1cccc(CNc2sc3c(c2C(=O)Nc2ccc(OC)cc2OC)CCC3)c1 |
| 16% | Cc1ccc(-c2nc(Nc3ccccc3)n[nH]2)cc1 |
| 14% | COc1ccc(-n2c(-c3ccccc3)nc(=S)c3c2CCCC3)cc1 |
| 8% | C=CCOc1ccc(CNc2nccs2)cc1OC |
| 1% | CCS(=O)c1ccccc1C(=O)OCC(=O)Nc1ccc2ccccc2c1 (stereo unspecified) |
| -9% | O=C1c2ccccc2C(=O)N1c1ccccc1 |
| -10% | CCOC(=O)c1c(NC(C)=O)c2c3c(sc2n1Cc1nc(-c2cccc(C)c2)oc1C)CCCC3 |
| -3%&-1% | CCCCNC(=O)CCC(=O)NNc1nc2ccccc2c2nc(C)nn12 |
| 1% | CC(NC(=O)Cc1ccccc1F)c1ccc(F)cc1 (stereo unspecified) |
| 22% | COc1cccc(CNCC(=O)Nc2ccc(N3CCOCC3)cc2)c1 |
| -2% | CCOC(=O)C1(C#N)Cc2ccccc2C1 |
| -4% | CC1(C)OC(=O)C2(Cc3ccc(Br)cc3N3CCCCC32)C(=O)O1 (stereo unspecified) |
| -11% | CCOc1cc(/C=N/NC(=O)c2ccncc2)ccc1OS(C)(=O)=O |
| -8% | COCCOC(=O)C1=C(C)NC(=O)NC1c1c(F)cccc1Cl (stereo unspecified) |
| 4% | COC(=O)C1=C(C)N(c2ccc(Cl)cc2)/C(=C/c2cccs2)C1=O |
| -21% | CCN(CC)CCNC(=O)c1cc2c(-c3ccc(Cl)cc3)nn(C)c2s1 |
| ? | CC(OC(=O)C1=Cc2ccccc2OC1)C(=O)NCC1CCCO1 (stereo unspecified) |
| 8% | CSc1nnc(-c2ccc(Cl)cc2Cl)o1 |
| -2% | Cc1cc(C(=O)OCC(=O)N(C)c2ccccc2)c2ccccc2n1 |
| -5% | CCn1c(O)c(/C=N/NC(=O)c2ccncc2)c(=O)n(CC)c1=S |
| -10% | O=C(CCC(=O)NCCO)NCCO |
| -12% | CCOC(=O)CNC(=O)OC1CCN2Cc3ccccc3N=C12 (stereo unspecified) |
| -12% | CC(C)COc1cccc(C(=O)Nc2cc(S(=O)(=O)N3CCOCC3)ccc2N2CCCC2)c1 |
| -1% | Cc1nnc2sc(-c3cccc4ccccc34)nn12 |

Assay outcomes: PubChem, National Center for Advancing Translational Sciences (NCATS)
